Screening data deposited in PubChem BioAssay by ICCB-Longwood Screening Facility, Harvard Medical School.
AID504770: growth inhibitors of E. coli YBA685 in a screen for V. cholerae RctB (chromosome II replication) inhibitors; E. coli YBA685 rctB-dependent plasmid, OD600 growth, 3 h; hits give low values; AID 504770; z-score (test concentration not listed); actives 0.27% (n = 130,000);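 active = z-score under -2 on both plates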;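 note: wells of about 30 µL received 100 nL stock; score is relative to mean and SD of the test wells; the first replicate is given; strong numbers were not always called active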
Ba CapD inh: CapD enzyme inhibition; purified CapD enzyme, fluorescence intensity read-out; hits give low values; some hits fall short of the stated cut; z-score (test concentration not listed); actives 0.23% (n = 140,000); AID 492967;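 active = z-score under -4 in either of two replicates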;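 note: stock transfer was 100 nL into about 40 µL; score is relative to mean and spread of the plate; one replicate is shown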
* hit, by the source's call; x = no result given. An excerpt; the hit share may differ from the screen's.

canonical_smiles | AID504770 | Ba CapD inh
Cc1ccccc1C1C(=O)c2ccccc2N(C)C1=O (configuration not stated) | 0.65 | -0.45
O=C(c1ccc2c(c1)[nH]c(=S)n1c3ccccc3nc21)N1CCCC1 | x | 4.1
CC(C)N1C/C(=C\c2ccc(N3CCOCC3)cc2)C(=O)/C(=C/c2ccc(N3CCOCC3)cc2)C1 | -0.85 | -0.26
CC(=O)N1c2ccc(S(=O)(=O)NCC3CCC(C(=O)NCc4ccccn4)CC3)cc2CC1C (configuration not stated) | 0.8 | -2.1
Cc1c(Cl)cccc1NC(=O)NC1Cc2ccccc2C1 | x | 0.19
O=c1[nH]c(NCCO)nc2ccccc12 | -1.8 | x
C=CCN1C(=O)/C(=c2/s/c(=C\C=C3\Sc4ccc(OC)cc4N3CC)c(=O)n2CC)SC1=S | x | -0.34
CC(O)CN(Cc1ccc(Cl)c(Cl)c1)CC(C)O (configuration not stated) | 0 | -0.03
O=C(NCCc1c[nH]c2ccc(OCc3ccccc3)cc12)c1ccc(Cl)cc1 | x | -0.27
COc1ccc(CN(Cc2cccn2C)C(=O)c2cc3cc(OC)ccc3[nH]2)cc1 | 0.3 | 38
Cn1nc(-c2cc(C(F)(F)F)cc(C(F)(F)F)c2)c2ccccc2c1=O | -0.5 | 0.22
COc1cc(/C=N/n2cnnc2-n2nc(C)cc2C)cc(Br)c1O | x | 0.22
OCC1CCCN(Cc2ccc(Br)o2)C1 (configuration not stated) | 0.4 | 0.73
COCCNS(=O)(=O)c1ccc(C(=O)OC)n1C | -0.4 | -0.15
Cc1nn(Cc2ccccc2)c(C)c1C(=O)OCC(=O)c1cc(C)n(C2CC2)c1C | -0.35 | x

Additional records
canonical_smiles | AID504770 | Ba CapD inh
CC(C)=CCSc1nc2sc3c(c2c(=O)[nH]1)CCCC3 | -0.4 | 0.33
CC1(C)CC2CC(C)(CN2C(=O)COC(=O)c2cccs2)C1 (configuration not stated) | -0.2 | 0.38
CC(=O)Oc1ccc(/C=C2/C(=N)N3C(=NC2=O)SN=C3SC(C)C)cc1 | -0.1 | -0.23
CN(C)S(=O)(=O)c1cccc(C(=O)OCc2cc(=O)n3ccsc3n2)c1 | -1.7 | x
C/C(=N\N)c1c(-c2ccccc2)c2cc(Br)ccc2[nH]c1=O | -0.75 | -0.67
O=C(O)C1CSC(C2CC=CCC2)N1 (configuration not stated) | -0.45 | 0.58
CC1=C(C#N)C(=O)N(CC(C)O)C(=O)/C1=C/c1ccc(-c2ccc(Br)cc2)o1 (configuration not stated) | 0.3 | 0.17
Cc1cc2c(cc1C)CSC(c1ccc(N(C)C)cc1)SC2 | x | 0.45
CCOC(=O)CSc1nnc2c3ccccc3n(C)c2n1 | 1.1 | -0.48
CCc1ccc(N2C(=O)N(C)c3ccccc3S2(=O)=O)cc1 | 0.5 | 0.18
CC(C)(C)c1ccc(Cn2c(N)nc3ccccc32)cc1 | -0.45 | -0.045
CCOC(=O)/C=C(\O)C(F)(F)F (tested in a mixture with another compound) | -0.2 | -0.45
O[C@H]1CCCC2CCCCC21 (some centres not stated) | -1 | 0.055
COc1ccc(Br)cc1Br | x | 0
CCNC(=O)CSc1ccc(Cl)cc1 | -1.1 | 0.24

Remaining list, next part
canonical_smiles | AID504770 | Ba CapD inh
CCCc1nc2ccccc2n1C(C)C | -1.1 | -0.23
Cc1ccc(C(=O)OC2CCCN(C)C2)s1 (configuration not stated) | 1.8 | -1.8
CC(=O)N(c1nccs1)C1CCCCC1 | 0.15 | 0.17
NC(=O)Cn1nnc(N(Cc2ccc(Cl)cc2)Cc2ccc(Cl)cc2)n1 | x | 0.47
COC(=O)C1=C(C)N(Cc2ccc(C)cc2)C(=O)/C1=C\c1ccc(N(C)C)cc1 | 0.2 | 0.48
O=[N+]([O-])c1ccc(Nc2nc(NCc3ccco3)nc(Nc3ccc(Cl)cc3)n2)cc1 | x | -1.2
Cc1nc(N2CCC(C)CC2)c2c(C)c(C(=O)N3CCN(c4ccccn4)CC3)sc2n1 | x | 0.04
COc1ccc2c(CC(=O)Nc3ccccc3)coc2c1 | -0.75 | x
C=CCn1c(CCNC(=O)c2cccs2)nnc1SCC(=O)c1ccc(Br)cc1 | 0.45 | -0.39
Cc1cccc(N=C(N)NC(N)=O)c1 | 0.3 | 0.065
COc1ccccc1OCCC(=O)NC1CCCCC1C (configuration not stated) | 1.9 | x
CCN(CC)c1ccc(N=C2C(=C(C#N)C#N)c3ccccc3C2=C(C#N)C#N)cc1 | 2.3 | -2
CN(C)c1cccc(C(=O)OCC(=O)c2ccc(OC(F)F)cc2)c1 | -1.4 | x
Cc1ccc(N2C(=O)SC(N(CC(=O)O)c3ccccc3)C2=O)cc1 (configuration not stated) | 1.6 | x
Cc1ccc(S(=O)(=O)N2CCN(S(=O)(=O)c3ccccc3)C2c2ccc(N(C)C)cc2)cc1 (configuration not stated) | x | 0.17

Remaining list, next part.
canonical_smiles | AID504770 | Ba CapD inh
O=C(Oc1ccc2c(=O)c(Oc3ccccc3Cl)coc2c1)c1ccco1 | -0.55 | -0.05
Cn1c(=O)c2nc3ccc(NC(=O)c4ccccc4)cc3nc2n(C)c1=O | x | 0.18
Cn1nccc1NC(=O)Nc1ccc(OC(F)(F)F)cc1 | x | -0.085
CCCN(CCC)C(=O)c1ccc2c(Cl)c3c(nc2c1)CCCC3 | -1.3 | -0.2
CC(=O)NC1CCN(C(=O)Nc2ccccc2)CC1 | 0.1 | x
CS(=O)(=O)N1CCN(C(=O)CSc2ccccc2)CC1 | 2.6 | -0.45
CCOC(=O)c1c(NC(=O)CSc2nnc(CNC(=O)c3ccco3)n2-c2cccc(Cl)c2)sc2c1CCC2 | x | 8.8
N#CC(C#N)=C(Nc1ccccn1)C(F)(F)F | -0.15 | 0.6
COC(=O)Cn1cccc1C(=O)c1ccccc1 | -0.8 | -1
C=C(C)CSc1nc2c(c(=O)n1-c1ccccc1)CC1=C(CC(C)(CC)OC1)N2 (configuration not stated) | 0.4 | 5.1
c1ccc(-c2nnc(SCC3CCOCO3)n2-c2ccccc2)cc1 (configuration not stated) | 1.6 | -0.69
CC(=O)N(C(C)=O)n1c(C)nc2c(sc3nnc(-c4ccccc4)c(-c4ccccc4)c32)c1=O | -0.6 | -1.6
COc1ccc2[nH]c(=O)c(CN(Cc3cccs3)S(=O)(=O)c3cccc4nsnc34)cc2c1 | 2 | x
Nc1c(Cl)cc(Cl)cc1C(=O)OCC(=O)NC1CCCCC1 | -0.8 | 55
CC(C)CN(C(=O)c1ccc(Cl)cc1)c1c(N)n(CC(C)C)c(=O)[nH]c1=O | 0.05 | x

Three structures out of the list, ordered by length of the SMILES, ascending.
canonical_smiles | AID504770 | Ba CapD inh
Cn1c(=O)c2nc3ccc(NC(=O)c4ccccc4)cc3nc2n(C)c1=O | x | 0.18
COc1ccc2[nH]c(=O)c(CN(Cc3cccs3)S(=O)(=O)c3cccc4nsnc34)cc2c1 | 2 | x
CCOC(=O)c1c(NC(=O)CSc2nnc(CNC(=O)c3ccco3)n2-c2cccc(Cl)c2)sc2c1CCC2 | x | 8.8

Continuation.
canonical_smiles | AID504770 | Ba CapD inh
Cc1c(Cc2ccc(F)cc2)c(=O)oc2cc(OC(=O)N(C)C)ccc12 | 0.7 | 4.3
O=S(=O)(NC1CC2CCC1C2)c1cccs1 (configuration not stated) | -0.75 | 0.24
Cc1cc(C)c2c(CC(=O)O)coc2c1 | -0.4 | x
Cc1ccc(Oc2ccc(C#N)c(C#N)c2)c(-n2nc3ccccc3n2)c1 | 2.4 | x
O=S(=O)(c1ccccc1F)N1C2CCC1CC(O)(c1ccccc1F)C2 (configuration not stated) | 1.4 | x
COc1ccc(/C(O)=C/C(=O)C(=O)NC2C3CC4CC(C3)CC2C4)cc1 (configuration not stated) | 0.25 | 0.32
N#CC1(NC(=O)COC(=O)c2ccc(-n3cccc3)cc2)CCCC1 | 0.1 | x
C=CCN1C(=S)N[C@@H]2CS(=O)(=O)C[C@@H]21 | 0.5 | -0.36
COc1ccc2c(c1)OC(c1ccccc1)CC2=O (configuration not stated) | -0.1 | 1.2
COC(=O)c1c(SC)nc2ccccc2c1OC | 1.1 | -0.46
CCCCCCC(=O)Nc1cccc(C(=O)N/N=C/c2cc(OCc3ccccc3)cc(OCc3ccccc3)c2)c1 | x | 0.53
O=C(CN(C(=O)c1ccccc1)N1C(=O)CCC1=O)c1ccccc1 | 0.1 | 0.71
CC1Cc2cc(S(=O)(=O)NCCC(=O)N3CCCCCC3)ccc2N1C(=O)C1CC1 (configuration not stated) | -0.2 | -0.29
CN(CCc1ccccn1)C(=O)c1cccnc1Oc1ccc(Cl)cc1 | 0.2 | -0.52
O=C(CCCn1c(SCc2cc(=O)n3cc(Cl)ccc3n2)nc2ccccc2c1=O)NCC1CCCO1 (configuration not stated) | x | -1.5

Individual results from the entries so far:
Reading of Nc1c(Cl)cc(Cl)cc1C(=O)OCC(=O)NC1CCCCC1 in AID504770: -0.8
Reading of Cc1c(Cl)cccc1NC(=O)NC1Cc2ccccc2C1 in Ba CapD inh: 0.19
Reading of C=CCN1C(=O)/C(=c2/s/c(=C\C=C3\Sc4ccc(OC)cc4N3CC)c(=O)n2CC)SC1=S in Ba CapD inh: -0.34
Reading of CC(=O)N(c1nccs1)C1CCCCC1 in AID504770: 0.15

Following part
canonical_smiles | AID504770 | Ba CapD inh
O=C(NCc1ccco1)c1ccc(-n2cnc3cccnc32)cc1 | -0.65 | 0.22
COc1cc(-c2ccc(=O)[nH]n2)ccc1OC(F)F | x | 0.36
COc1ccc(NC(=O)C2CCCN2S(=O)(=O)c2ccc3c(c2)C(C)(C)C(=O)N3C)cc1 (configuration not stated) | -0.05 | -0.36
CC(C)(C)c1ccc(C(=O)N2CCCC2)cc1 | -0.4 | 0.32
COC(=O)c1cc(S(=O)(=O)N(CCCN2CCOCC2)C2CCN(C)CC2)cn1C | -0.25 | -1.1
COc1cc(CCC(=O)Nc2c(C(=O)N3CCN(c4ccccn4)CC3)oc3ccccc23)on1 | 0.35 | 1.2
CC1=C(Cc2ccc(OC(=O)c3ccccc3)cc2)C(=O)C(C(C)C)CC1 (configuration not stated) | -0.25 | -0.64
O=C(NCCc1ccccc1)N1CCOCC1 | 0.2 | x
O=C(N/N=C/C=C/c1ccccc1)c1ccccc1CO | x | -1.4
CC(C)n1nccc1NC(=O)CSc1nnc(Nc2ccccc2F)s1 | 1.6 | x
O=C(c1cc2cc(Br)ccc2oc1=O)N1CCN(c2ccccc2F)CC1 | 1.6 | -0.44
CSc1ccc(C(C(C(=O)c2cccs2)N2CCOCC2)N2CCOCC2)cc1 (configuration not stated) | -0.9 | x
CS(=O)(=O)n1nc(-c2ccco2)nc1N | 1.4 | x
CN(C)/C=C1/Nc2ccccc2C1=O | -1.5 | 0.16
CCOC(=O)c1oc2ccccc2c1NC(=O)COC(=O)CCc1nc2ccccc2c(=O)[nH]1 | -0.75 | x

(list continues)
SMILES,AID504770,Ba CapD inh
O=C1CN(C(=O)Cn2nnc3ccccc3c2=O)c2ccccc2N1,-2.1,x
O=C(NCCc1c[nH]c2ccc(Cl)cc12)OCCc1ccsc1,x,-0.59
CCCC1=C(C(=O)OCC)C(c2cccnc2)C(C#N)=C(N)O1 (configuration not stated),x,0.41
O=C(Nc1ccccc1)C1CCN(c2cnccn2)CC1,0.5,17
CCOc1ccc(N2C(=O)/C(=C\c3ccc(C)o3)S(=O)(=O)C2c2cccc([N+](=O)[O-])c2)cc1 (configuration not stated),x,-0.1
CCn1c2ccccc2c2cc(/C=C/C(=O)O)ccc21,0.95,x
Cc1cc(C)n(C(=O)C(Cc2ccccc2)N2C(=O)C3CCCCC3C2=O)n1 (configuration not stated),x,-0.28
COc1ccccc1OCC(=O)N(C)c1ccccc1,-1.1,0.42
O=C(Cc1ccccc1)Nc1nnc(C2CCCCC2)s1,-0.25,-0.46
COc1ccc(C=Nc2ccc(/C=C\C(=O)O)cc2)cc1,-0.35,6
C/C(=N/NC(=O)c1cn(-c2cccc(C)n2)cn1)c1ccc([N+](=O)[O-])cc1,x,-0.11
Cc1nnc2c(Nc3ccccc3I)nc3nonc3n12,-2.8*,x

Record cards, from the list above.
C/C(=N/NC(=O)c1cn(-c2cccc(C)n2)cn1)c1ccc([N+](=O)[O-])cc1 across the screens: AID504770: x; Ba CapD inh: -0.11
CCn1c2ccccc2c2cc(/C=C/C(=O)O)ccc21 across the screens: AID504770: 0.95; Ba CapD inh: x
O=C(Nc1ccccc1)C1CCN(c2cnccn2)CC1 across the screens: AID504770: 0.5; Ba CapD inh: 17

New compounds follow:
SMILES,AID504770,Ba CapD inh
Cc1ccc(NC(=O)C2C3C=CC4(O3)C2C(=O)N(c2ccccc2F)C4C(=O)NC2CCCC2)cc1 (configuration not stated),-0.75,x
S=c1cc(-c2ccccc2)ss1,0.9,-1.6
COc1ccc(NC(=O)c2ccccc2Nc2ccccc2)cc1,1.2,0.46
O=C(COc1ccc(Cl)cc1)NCCn1ccc2ccccc21,-0.7,-0.13
c1ccc(-c2nc3ccccc3o2)cc1,-0.95,2.8
O=C(Nc1cccc2nonc12)C(F)(F)C(F)(F)C(F)(F)F,1.1,-0.94
CCOC(=O)c1ccc(-c2sc3nc(N4CCOCC4)c4c(c3c2N)CC(C)(C)OC4)o1,x,0.59
CCN(CC)CCOc1ccc2nc(N(C)C)sc2c1,0.55,-0.28
CC1=C(C(N)=O)C(/C=C/c2ccccc2)n2ncnc2N1 (configuration not stated),-0.05,x
CC(=O)Oc1ccccc1OCc1nn(C)c2ccccc12,-0.3,0.14
Cc1cccc(Cn2nc(Cc3cccnc3)c3ccccc3c2=O)c1,-0.35,-1.1
Cn1c(CC(=O)Nc2ccccc2)n[nH]c1=S,-0.7,x
Cc1cc(-n2c(C)cc(C(=O)Cn3cc(C(F)(F)F)cc(Cl)c3=O)c2C)no1,0.05,x
NC1=NCCN1CC(=O)O,-0.1,-0.18
COc1ccccc1OCC(=O)N1C(C)CCCC1C (configuration not stated),-0.3,x
